# Screening data: PubChem BioAssay, several laboratories
# Insulin prom inh – TRM-6 insulin promoter activity inhibition; TRM-6 cells (human fetal islet line), insulin promoter-eGFP reporter, imaging; reporter expression induced with tamoxifen; inhibition, % at 2 µM; 130,000 tested, 0.9% active;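 active = inhibition above the mean plus 3 SD, with well images judged a real hit on visual review, cut at about 60% in these data, passing the limit was not always enough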
# PKD1 inh – inhibitors of human PKD1 kinase; inhibition, %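 (about 10 µM by stock and volumes)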; PKD1 kinase fluorescence polarization assay; 200,000 tested, 0.056% active;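 active = inhibition of 50% or more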;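 note: controls were vehicle for no effect and a reference inhibitor for full effect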
# Target sequence (Q15139 whole entry, looked up): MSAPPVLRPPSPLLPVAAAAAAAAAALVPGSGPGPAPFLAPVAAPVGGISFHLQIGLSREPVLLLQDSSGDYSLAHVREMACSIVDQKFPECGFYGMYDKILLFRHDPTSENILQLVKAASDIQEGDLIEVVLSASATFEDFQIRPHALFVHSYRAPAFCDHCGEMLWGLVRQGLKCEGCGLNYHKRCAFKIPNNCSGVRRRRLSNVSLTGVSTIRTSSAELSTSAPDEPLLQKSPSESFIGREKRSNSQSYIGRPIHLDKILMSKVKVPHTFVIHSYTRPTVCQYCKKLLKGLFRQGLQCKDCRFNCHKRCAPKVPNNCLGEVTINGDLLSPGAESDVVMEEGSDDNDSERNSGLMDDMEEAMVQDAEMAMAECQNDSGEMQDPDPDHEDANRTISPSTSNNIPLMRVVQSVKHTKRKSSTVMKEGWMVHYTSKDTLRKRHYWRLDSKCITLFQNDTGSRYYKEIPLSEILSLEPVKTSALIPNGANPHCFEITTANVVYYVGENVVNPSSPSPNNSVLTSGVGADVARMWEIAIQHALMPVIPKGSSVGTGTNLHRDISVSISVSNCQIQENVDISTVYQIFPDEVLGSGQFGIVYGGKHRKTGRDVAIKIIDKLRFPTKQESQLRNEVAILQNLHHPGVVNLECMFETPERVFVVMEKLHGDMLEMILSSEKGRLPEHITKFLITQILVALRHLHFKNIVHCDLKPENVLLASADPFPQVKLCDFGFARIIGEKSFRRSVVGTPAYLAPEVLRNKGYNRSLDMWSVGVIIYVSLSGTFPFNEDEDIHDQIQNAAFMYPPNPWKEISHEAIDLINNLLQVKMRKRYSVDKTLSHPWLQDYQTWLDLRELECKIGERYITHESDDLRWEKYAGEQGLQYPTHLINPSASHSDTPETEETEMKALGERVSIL
# GALR2 agonist – agonists of human galanin receptor 2 (GALR2) | O43603 | GALR2-expressing cells, agonist activation read-out | activation, %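 (tested at 5 µM)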 | 140,000 tested, 0.48% active | AID 803;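 active = above mean plus 3 SD of all compounds, about 5% in these data, not always enough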;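 note: 0% = vehicle buffer wells and 100% = reference agonist at full effect; tested in CHO reporter cells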
# RGS16-Gao – modulates binding between human RGS16 and Galphao; binding response (% of control), % at 10 µM; 220,000 tested, 0.38% active; AID 1441; bead-based flow cytometry RGS16-Galphao binding, fluorescence; actives lie on both sides; O15492+P09471;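 active = below 25% or above 175%, edge rows of some plates excepted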;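 note: Galphao activated by GDP with aluminum fluoride before binding; 100% = wells without compound and 0% = beads without RGS; some results beyond the cut were filed as inactive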
# HSV augment – increases HSV replication in cells. HSV replication augmentation in cells, fold increase. 220,000 tested, 0.005% active. maximum fold increase;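 active = peak rise of 1.5-fold or more in the series; tested in PC3 cells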;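 note: first round at 10 µM; read as green reporter fluorescence; hits show the peak of a series up to 25 µM; 1 = signal of infected wells without compound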
# Insulin prom inh cell count – recorded beside Insulin prom inh, whose call it bears; normalized cell count, %; measured here: cell count, toxicity; reference of the scale not given here;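 cells exposed to compound for 48 h; stained nuclei by imaging scaled within each plate; lower means fewer cells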
# HSV augment primary fold – second read-out of HSV augment, no call of its own (marks repeat the call); fold increase; compound at 10 µM; measured here: primary screen fold increase 10 uM; tested in PC3 cells;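 GFP signal in the first replicate; 1 = infected wells without compound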
# * marks the source's active call; other numbers are inactive results; i = inactive; nt = not tested or not shown. Outcome played no part in choosing rows. Share with any hit: about 1.3%.
structure	Insulin prom inh	Insulin prom inh cell count	PKD1 inh	GALR2 agonist	RGS16-Gao	HSV augment	HSV augment primary fold
COC(=O)C1CCN(C(=O)COc2cc3sc(C)nc3c3sccc23)CC1	57.1	110.8	-7.7	-0.9	102.0	i	0.93
COc1ccc(Cl)cc1N1C(=O)CC(N2CCc3ccccc32)C1=O (centres undefined)	-7.1	161.6	0.6	-0.3	98.0	i	0.78
O=C(CCCn1ncn2c(cc3occc32)c1=O)N1CCc2ccccc2C1	-11.5	113.7	-8.3	-2.7	104.2	i	0.94
Cc1ccc(S(=O)(=O)N2CCC(=O)N(C(COCc3cccc(C)c3)Cc3ccccc3)CC2)cc1 (centres undefined)	4.5	68.2	-8.6	-1.0	117.5	i	0.88
O=C(NCN1CCN(CCO)CC1)c1cnccn1	-6.7	83.1	-1.9	-1.2	194.9	i	0.96
CCOC(=O)c1ccc(NC(=O)CC2Sc3ncnn3C2=O)cc1 (centres undefined)	29.2	99.0	-2.5	-1.7	96.6	i	0.99
O=C(COc1ccccc1)Nc1ccc(Cl)c(-c2nc3ncccc3o2)c1	50.0	101.5	1.8	-1.0	nt	i	0.72
Cc1ccc(-n2c(N)c(C(N)=O)sc2=S)c(C)c1	28.6	168.2	-5.2	-0.2	87.2	nt	nt
CC(C)COC(=O)c1ccc(N2C(=O)c3ccccc3C2=O)cc1	3.7	91.8	-3.9	nt	102.1	i	0.91
CCNC(=S)N(CCc1c(C)[nH]c2ccc(C)cc12)Cc1ccco1	-340.0	55.7	-7.9	-1.3	106.0	nt	nt
CCC[N+](CC#Cc1ccccc1)(CCC)CC(=O)c1ccc(Cl)cc1	nt	nt	0.0	-0.6	100.9	i	0.98
O=S(=O)(c1ccc(Br)s1)N1CCN(c2ccnc3cc(Cl)ccc23)CC1	nt	nt	nt	nt	96.5	i	0.95

# The list goes on:
structure	Insulin prom inh	Insulin prom inh cell count	PKD1 inh	GALR2 agonist	RGS16-Gao	HSV augment	HSV augment primary fold
O=C(c1ccncc1)N1CCN(C(=O)c2ccco2)CC1	6.1	237.2	-5.5	-3.6	102.2	i	0.94
CCOCC(=O)Nc1cccc(SC)c1	nt	nt	-0.1	nt	96.1	i	0.84
CCOc1ccc(C(=O)Nc2ccc(N3CCN(S(C)(=O)=O)CC3)cc2)cc1[N+](=O)[O-]	nt	nt	-7.3	nt	116.7	i	0.92
COC(=O)C1C/C(=N\NS(=O)(=O)c2ccc(C)cc2)c2ccsc2C1 (centres undefined)	33.3	106.7	-2.8	-0.3	108.6	i	1.04
C=C1CCN([C@@H](C)C(=O)OCc2ccc(C)cc2)S(=O)(=O)c2ccccc21	nt	nt	nt	nt	96.6	i	0.92
C/C=N/NC(=O)CCCC(=O)N/N=C/C	-14.3	83.1	-8.5	nt	98.9	i	1.02
O=C(NCc1cccnc1)/C(=C/c1ccc(-c2cccc(Cl)c2)o1)S(=O)(=O)c1ccccc1	nt	nt	-0.8	0.6	97.0	i	0.34
CC1CCN(c2ccc(S(=O)(=O)NC3=NCCCCC3)cc2[N+](=O)[O-])CC1	nt	nt	0.0	nt	99.5	i	0.99
CN(C)C(=O)c1cccn(Cc2ccc(C(F)(F)F)cc2)c1=O	nt	nt	-2.9	nt	102.9	i	1.01
Cc1nc2c(-c3ccc(F)cc3)c(C)nn2c(C)c1CCC(=O)N1CCN(c2ccccc2)CC1	nt	nt	-11.4	-0.4	107.3	i	0.82
COCC1CCN(C(=O)CCc2nnc(CCCCc3ccccc3)o2)CC1	nt	nt	3.5	nt	103.8	i	1.01
CCCNC(=O)NC(=O)CSc1ccc(C)cc1C	16.7	87.3	-4.6	nt	102.0	i	0.98

# Following part
structure	Insulin prom inh	Insulin prom inh cell count	PKD1 inh	GALR2 agonist	RGS16-Gao	HSV augment	HSV augment primary fold
N#Cc1cc([N+](=O)[O-])ccc1NC(=O)COC(=O)CC1CCCC1	nt	nt	nt	nt	96.4	i	1.02
O=C(NCCc1ccc(Cl)cc1)C1CCN(c2cnccn2)CC1	18.2	168.1	-7.1	-0.4	101.9	i	0.89
Cc1cc(C)c2nc(C(F)(F)F)nc(N3CCN(C(=O)c4ccco4)CC3)c2c1	6.2	59.9	-3.5	-2.2	107.1	i	0.85
COc1ccc(CCNC(=O)c2nnn(-c3ccccc3OC)c2N)cc1OC	nt	nt	-4.1	1.5	104.4	i	1
Cc1ccccc1Cn1cc(NC(=O)c2cc(C3CC3)on2)cn1	nt	nt	nt	nt	106.9	i	1.05
CC(=O)c1c(O)cc(C)n(Cc2ccccc2)c1=O	-146.7	185.7	-14.4	-1.9	nt	i	0.93
Cc1c(N=Nc2c(-c3ccc([N+](=O)[O-])cc3)[nH]n(C(N)=S)c2=O)cccc1[N+](=O)[O-]	11.1	226.9	-0.8	nt	105.2	i	0.96
O=C(N/N=C/c1ccccc1O)C1SCCCS1	nt	nt	-6.6	nt	88.8	i	0.9
O=C(COc1cccc2cccnc12)NCc1cccs1	16.7	88.5	1.9	nt	87.0	i	1.04
O=C(Nc1cccc(O)c1)c1ccc(Br)c(S(=O)(=O)N2CCCCC2)c1	-45.5	182.7	8.5	-2.5	106.7	i	0.86
COc1ccc(-c2cn3c(C)c(C(=O)NCCN4CCOCC4)sc3n2)cc1	-30.3	100.5	-1.7	-0.5	99.2	nt	nt
COCCCNC(=O)c1cccc(OC)c1OC	-113.6	118.0	11.4	-1.8	117.4	i	1.02

# Additional records
structure	Insulin prom inh	Insulin prom inh cell count	PKD1 inh	GALR2 agonist	RGS16-Gao	HSV augment	HSV augment primary fold
c1cc(-c2noc(CC3CCCCC3)n2)ccn1	-81.8	101.6	-8.3	-1.9	103.4	i	0.95
CC1=C(C(=O)Nc2ccc([N+](=O)[O-])cc2)C(c2cccc(C(F)(F)F)c2)NC(=S)N1c1ccccc1 (centres undefined)	-48.6	29.1	3.3	-1.4	100.2	i	0.99
CC(=O)NCCNC(=O)c1ccc(NC2=NC3CS(=O)(=O)CC3S2)cc1 (centres undefined)	nt	nt	nt	nt	97.1	i	1.06
O=C(C[n+]1cccc(CNC(=O)c2ccc(OC(F)F)cc2)c1)Nc1ccc(SC(F)F)cc1	18.2	104.5	11.0	-0.9	72.3	i	0.81
Cn1nc(-c2ccccc2)c(C(=O)Nc2ccc(C(F)(F)F)cc2)c1Cl	0.0	90.8	-6.5	-1.4	98.0	i	1.09
Cc1ccc(-n2c(O)c(C=NC3CCS(=O)(=O)C3)c3ccccc3c2=O)cc1 (centres undefined)	11.4	80.9	-0.6	0.2	102.3	i	0.98
Cc1cc(C)n(-c2c(F)c(F)c(COC(=O)c3ccccc3)c(F)c2F)n1	-27.8	95.8	2.3	-1.4	95.5	i	1.1
Cc1cc(Nc2ccc(Cl)cc2)n(-c2ccccc2)n1	-42.9	94.2	7.1	0.0	98.8	i	0.86
Cc1ccc(/C=N/NC(=O)c2ccncc2)o1	31.0	80.2	1.7	-0.8	113.3	i	1.02
CCOc1ccccc1CN(CCc1ccc2c(c1)OCO2)Cc1ccccn1	nt	nt	-5.1	-0.6	100.2	i	0.94
CC(=O)N1[C@H](Cc2ccccc2)C=C[C@]1(C)C(=O)NCc1ccccn1	19.1	127.0	2.5	-3.0	95.0	i	0.9
CC(C)CC(OC(=O)c1ccco1)C(=O)NCC1CCCO1 (centres undefined)	nt	nt	-6.4	-1.2	98.8	i	0.91

# Next compounds follow:
structure	Insulin prom inh	Insulin prom inh cell count	PKD1 inh	GALR2 agonist	RGS16-Gao	HSV augment	HSV augment primary fold
CC(Oc1ccccc1)C(=O)NNS(=O)(=O)c1ccc([N+](=O)[O-])cc1 (centres undefined)	nt	nt	9.3	0.7	72.6	i	0.99
COc1ccc(-c2c(C)oc3ccc(C)cc23)cc1	nt	nt	4.4	-2.6	101.2	i	0.95
CN1C(=O)c2ccccc2N(C)C1c1ccc2c(c1)OCO2 (centres undefined)	3.2	117.7	-7.4	-1.3	96.7	i	0.93
Cc1cccc(OCC(=O)N/N=C/c2ccc(N(C)C)cc2)c1	nt	nt	8.7	nt	99.5	i	1.01
CCCS(=O)(=O)N1CCC(C(=O)N2CCC(Cc3ccccc3)CC2)CC1	69.2	53.4	-4.5	-1.5	107.0	i	0.86
COc1ccc(C(=O)Nc2ccc(S(=O)(=O)Nc3nccc(C)n3)cc2)cc1OC	-22.6	33.1	6.7	-2.2	103.1	i	1.04
COc1ccc(NC(=O)Cn2cc(C#N)c3ccccc32)cc1	nt	nt	5.3	nt	95.9	i	0.95
N#CC1=C(N)NC(SCc2ccc(F)cc2)=C(C#N)C12CCCCC2	-2.6	81.9	4.3	0.4	101.2	i	0.67
Cc1ccc(/C=C2\Oc3c(ccc(O)c3CN3CCN(CCO)CC3)C2=O)cc1	-26.7	88.1	3.8	nt	95.4	i	1.08
COc1ccc(CC(=O)O/N=C(\N)c2ccncc2)cc1	nt	nt	nt	nt	100.3	i	1.04
COCCNC(=O)C(c1ccncc1)N(Cc1ccccc1)C(=O)Cn1nnc2ccccc21 (centres undefined)	-16.7	134.6	6.7	nt	99.4	i	0.91
Cc1ccc(NC(=O)Nc2cccc([N+](=O)[O-])c2)cc1F	nt	nt	-6.0	-0.9	107.7	i	0.76

# (more compounds)
structure	Insulin prom inh	Insulin prom inh cell count	PKD1 inh	GALR2 agonist	RGS16-Gao	HSV augment	HSV augment primary fold
CC(C)NCC(=O)C12CC3CC(CC(C3)C1)C2	nt	nt	nt	nt	94.1	i	1.06
COc1ccccc1NC(=O)C1=C(C)NC2=C(C(=O)CCC2)C1c1ccc(C)o1 (centres undefined)	33.3	98.5	-13.0	0.1	105.9	i	1.05
O=C(Oc1ccc2c(c1)OCO2)c1cc2c(s1)CCC2	nt	nt	-10.1	-1.0	83.5	i	1.05
Cc1cc([N+](=O)[O-])ccc1NC(=O)Cc1ccc(F)cc1	20.0	88.0	3.8	-0.3	154.4	i	0.91
COc1ccc(OC)c(NC(=O)c2cc(-c3ccc(C)cc3O)n[nH]2)c1	nt	nt	4.3	3.0	104.6	i	0.95
Cn1ncc(Br)c1C(=O)NC12CC3CC(CC(C3)C1)C2	23.3	86.6	-6.6	-0.8	103.8	i	1.03
Cc1ccc(C(=O)Nn2cnc3scc(-c4cccs4)c3c2=O)c(O)c1	21.7	98.6	3.1	-1.6	89.3	i	1.12
COc1ccc(S(=O)(=O)N(Cc2ccccc2)Cc2nc(-c3ccccc3)no2)cc1	16.9	41.2	-10.0	-0.3	90.1	i	0.98
CCC(=O)NC(=S)Nc1ccc(S(=O)(=O)NC(C)C)cc1	nt	nt	0.7	0.3	99.2	i	0.74
CN(C(=O)CCN1C(=O)c2ccccc2C1=O)C1CCCCC1	-6.5	59.5	0.4	-2.1	102.2	i	0.82
OCCN1CCN(c2ncnc3nc[nH]c23)CC1	nt	nt	1.2	-2.0	104.8	i	0.81
COc1ccc(/C=C/C(=O)NC(=S)NCCc2ccc(OC)c(OC)c2)cc1	-50.0	78.1	4.0	3.4	100.2	i	0.92

# A second format for 2 compounds above.
# Order of results – Insulin prom inh	Insulin prom inh cell count	PKD1 inh	GALR2 agonist	RGS16-Gao	HSV augment	HSV augment primary fold
- COc1ccc(OC)c(NC(=O)c2cc(-c3ccc(C)cc3O)n[nH]2)c1
  nt	nt	4.3	3.0	104.6	i	0.95
- CC(C)NCC(=O)C12CC3CC(CC(C3)C1)C2
  nt	nt	nt	nt	94.1	i	1.06

# (continued)
structure	Insulin prom inh	Insulin prom inh cell count	PKD1 inh	GALR2 agonist	RGS16-Gao	HSV augment	HSV augment primary fold
Cc1ccc(S(=O)(=O)N(CC(=O)Nc2cccc(N(C)S(C)(=O)=O)c2)c2ccc(Cl)c(Cl)c2)cc1	-62.5	100.4	8.3	-2.1	100.6	i	0.89
O=C(CSc1ncnc2sc3c(c12)CCCC3)c1ccco1	38.9	60.9	-0.9	-0.5	100.3	i	0.97
COc1ccc(NC(=O)/C(=C/c2cccnc2)NC(=O)c2cccs2)cc1	-21.4	91.2	-1.4	0.1	97.4	i	1.05
CCOC(=O)CSc1nnc(CCCCCN2C(=O)c3cccc4cccc(c34)C2=O)o1	-40.7	94.5	0.7	0.7	96.6	i	0.81
O=CNc1ccccc1Oc1ccccc1	34.6	129.2	-2.9	-0.4	104.2	i	1.06
COCC(C)NC(=O)CCc1nnc(C2(c3ccc(Cl)cc3)CCC2)o1 (centres undefined)	nt	nt	3.7	nt	104.0	i	0.85
CCC(=O)Nc1nnc(-c2ccc(OC)cc2)o1	nt	nt	-11.5	-2.1	102.9	i	0.92
Cc1cccc(OCC(=O)N2CCOCC2)c1	15.4	150.8	-6.7	-2.7	123.4	i	0.95
CC(C)C1(CCNC(=O)c2cccs2)CCOC(C)(C)C1 (centres undefined)	nt	nt	nt	nt	113.3	i	0.9
